Source: PubChem BioAssay (National Center for Advancing Translational Sciences (NCATS))
Rango dissoc inh: prevents RanGTP from dissociating the Rango-importin beta complex. O95149+P62826. Biochemical FRET Rango-importin beta, RanGTP-induced dissociation. Potency, µM (titrated, usually from 46.1 µM), inactives show top-dose activity change, negative = inhibition. actives 0.071% (n = 340,000). AID 540253; active means falling FRET ratio curve, often poorly fitted, with flat reads before Ran was added; inconclusive means other falling curves, or compound fluorescence or quenching; inactive means flat or rising ratio curve;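 note: potency is the fitted concentration of half-maximal effect; % of control where 0% means no effect; nearly all actives have a fitted effect of over 45% in size; -100% = wells without RanGTP and RCC1; the record marks most hits as doubtful in a second field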
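Rango/importin beta premix (0.1/0.25 uM final), PBS + 1 mM DTT + 0.02% Tween-20 + 0.1% BSA; cpd 5 min RT; FRET pre-read; + RanGTP-RCC1 (0.6 uM Ran, 2 mM GTP, 0.2 uM RCC1); 45 min RT; FRET post-read, ex 430, em 486/530 nm.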
miR-21 FLuc: raises the signal of a miR-21 reporter. Potency, µM (highest dose often 38.3 µM), for inactives: at the top dose reporter change, positive = more light. 340,000 tested, under 10 active. AID 2288. HeLa miR-21 FLuc reporter, luciferase, 48 h; active = well fitted rising curve with a large enough effect; inconclusive = small, poorly fitted or top-dose-only effect; inactive = no such curve, though single readings can be large or run the other way;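 note: % of control where 0% means no effect; miR-21 action dims this reporter so a rising signal means less miR-21 action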
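Compounds were titrated across several concentrations (up to approximately 40 uM) and incubated 48 hours with HeLa miR-21-FLuc reporter cells (miR-21 target sequence downstream of FLuc, endogenous miR-21). Readout was firefly luciferase luminescence after lytic detection reagent.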
GLA inh pH 4.5: inhibitors of human alpha-galactosidase A at pH 4.5; purified enzyme, 4-MU-alpha-Gal fluorescence, pH 4.5; activity change, negative = inhibition, % at 105 µM; AID 1467; P06280; 230,000 tested, under 10 active; inconclusive = small, poorly fitted or top-dose-only inhibition, or a rising curve; inactive = flat fitted curve, though single readings scatter; no compound was filed as active;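 note: 0% = full activity with enzyme and -100% = basal without enzyme; dose as in the result columns while the protocol names 77 µM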
Target sequence (P06280 whole entry, looked up): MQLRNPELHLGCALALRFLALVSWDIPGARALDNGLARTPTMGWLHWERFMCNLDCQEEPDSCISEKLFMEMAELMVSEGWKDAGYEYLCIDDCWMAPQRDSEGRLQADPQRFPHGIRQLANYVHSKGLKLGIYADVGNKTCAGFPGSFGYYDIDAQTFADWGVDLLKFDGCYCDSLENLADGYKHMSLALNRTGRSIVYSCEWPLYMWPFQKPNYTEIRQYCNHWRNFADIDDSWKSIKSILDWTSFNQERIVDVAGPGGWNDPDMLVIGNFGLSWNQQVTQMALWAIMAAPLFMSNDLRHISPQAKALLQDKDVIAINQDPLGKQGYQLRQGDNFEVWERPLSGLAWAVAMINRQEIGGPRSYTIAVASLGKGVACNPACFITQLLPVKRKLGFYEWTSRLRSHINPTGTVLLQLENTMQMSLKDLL
Rango-impB inh: Rango-importin beta binding inhibition | Rango CFP/YFP FRET sensor + importin beta, 45 min | AID 540263 | actives 0.031% (n = 340,000) | Q14974 | Potency, µM (series often up to 92.2 µM), for inactives: top-dose inhibition of complex formation; active = rising FRET ratio curve, often small or poorly fitted; inconclusive = mostly compound fluorescence or quenching in the first reads; inactive = flat curves in all reads;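 note: potency is the fitted concentration of half-maximal effect; 0% = DMSO wells and 100% = buffer wells lacking importin beta; nearly all actives have a fitted effect of over 15% in size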
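Inhibition scored from the CFP 486 nm/YFP 530 nm FRET ratio 45 min after adding 0.125 microM importin beta to 50 nM Rango biosensor preincubated 5 min with compound (room temperature, PBS with DTT, Tween-20, BSA). No-importin wells as positive control.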
The depositor's hits bear a star; ? = inconclusive; . = no result given; & = joins results of further samples.

SMILES	Rango dissoc inh	miR-21 FLuc	GLA inh pH 4.5	Rango-impB inh
Cc1cc(C)cc(N(CC(=O)NC(C)(C)C)C(=O)CCC(=O)Nc2nccs2)c1	12%	2%	.	-0.7%
CCc1nnc(NC(=O)C(c2ccccc2)c2ccccc2)s1	-4%	11%	.	6.3%
Cc1[nH]nc2c1C(c1ccco1)C(C#N)=C(N)O2 (stereo unspecified)	-13%	5%	-29	0.2%
O=C(Cc1ccccc1)NCC1COc2ccccc2O1 (stereo unspecified)	0%	.	.	-1.7%
O=C(C1CCN(S(=O)(=O)c2cccnc2)CC1)N1CCCCC1	-10%	-2%	-10	-1.0%
NC1=NC2(CCCCC2)N(c2ccc(F)cc2F)C(N)=N1	30%	0%	5	4.9%
COc1ccccc1NC(=S)N(Cc1ccco1)Cc1cc2ccc(C)c(C)c2[nH]c1=O	24%	16%	-13	0.3%
Cc1noc(C)c1COc1ccccc1C(=O)NCCc1ccc(Cl)cc1	-16%	.	.	-2.1%
CC1(C(=O)NC2CCCCCCC2)CCC(=O)N1Cc1ccco1 (stereo unspecified)	-21%	-9%	3	?
COC(=O)CCc1ccc(OCC(O)CNC(C)C)cc1 (stereo unspecified)	-11%	.	.	-1.3%
CCOC(=O)C1CCN(CCCSc2ccccc2)CC1	0%	.	.	0.6%
O=C(CSc1nc2sc3c(c2c(=O)[nH]1)CCCC3)NCCO	30%	-8%	3	5.6%
O=S(=O)(NCc1ccc(F)cc1)c1ccc(-n2cccn2)cc1	21%	0%	.	-4.4%
COc1ccc(OCC(=O)N/N=C(\C)c2cc3ccccc3o2)cc1	0%	-61%	1	0.1%
O=C(COc1ccccc1)OCC(=O)c1ccc(S(=O)(=O)N2CCCCC2)cc1	-2%	.	.	-4.6%
O=C(CSc1ccc(F)cc1)Nc1cccc(S(=O)(=O)N2CCOCC2)c1	-4%	.	.	0.8%
Cc1ccc(NC(=O)N2CCN(C/C=C/c3ccccc3)CC2)cc1	-6%	-5%	10	-4.5%
CCCC(=O)Nc1ccc(C(=O)Nc2cccc(OC)c2)cc1	-9%	-46%	5	-0.5%
Cc1nsc(N)c1C(=O)O	15%	1%	3	5.2%
CCOC(=O)C(NC(C)=O)(NC(C)C)C(F)(F)F (stereo unspecified)	16%	0%	-3	0.7%
Cc1nc2n(c(=O)c1CCN1CCC(c3noc4cc(F)ccc34)CC1)CCCC2	-13%	2%	2&-2&-7	-1.3%
O=C(NNC(=O)c1ccncc1)NC1CCCCC1	1%	-2%	8	-0.5%
COC(CN1C(=O)C(O)=C(C(C)=O)C1c1ccccn1)OC (stereo unspecified)	5%	-6%	4	0.4%
CCOC(=O)COc1ccc(C(=O)c2ccccc2)c(O)c1	11%	5%	1	-1.0%
Cc1ccc(CN2CCNC(=O)C2CC(=O)N(C)CCc2ccccc2)cc1 (stereo unspecified)	-2%	25%	5	?
O=C(NCCNc1nccc(C(F)(F)F)n1)c1cccs1	9%	-9%	-1	-0.9%
FC(F)(F)c1nnc2sc(-c3cccs3)nn12	-11%	-9%	7	?
CCn1nc(NC(=O)c2ccncc2)c2cc3cc(C)ccc3nc21	?	-20%	5	?
O=C(CCCCn1c(=O)c2ccccc2n(CC(=O)Nc2ccccc2)c1=O)NCc1ccco1	11%	-16%	6	0.3%
O=C(COc1ccc(F)cc1F)NNC(=O)Nc1cccc([N+](=O)[O-])c1	17%	5%	.	1.9%
Cc1ccc(NC(=O)CN(C)C(=O)c2cccc(-n3cccc3)c2)cc1	7%	.	.	-2.8%
O=C(CN1C(=O)NC2(CCCCCCC2)C1=O)NC(=O)NCc1ccco1	12%	-7%	3	0.8%
Cc1ccc(-c2nc(CN(C)C3CCOC3)c(C)o2)s1 (stereo unspecified)	-3%	-32%	-2	-1.1%
CSc1ncccc1C(=O)OCC(=O)NC1CCCC1	1%	.	.	-0.8%
Cc1nc2cc(NS(=O)(=O)c3ccccc3F)ccc2s1	16%	-1%	0	-2.3%
O=C(c1ccncc1)c1ccc(N2CCN(C3CC(=O)N(Cc4ccccc4)C3=O)CC2)cc1 (stereo unspecified)	5%	26%	-10	?
Cc1cc(S(=O)(=O)N2CCOCC2)ccc1OCC(=O)N1CCCCC1	4%	-1%	.	1.0%
O=C(NC(=S)Nc1ccc(N2CCOCC2)cc1)c1cccs1	21%	-43%	-2	2.2%
CN(Cc1cccc(Cl)c1)C(=O)C1CCC(=O)N(C2CC2)C1 (stereo unspecified)	-8%	-3%	.	0.4%
CCCN(Cc1nc2cc(Cl)ccc2c(=O)[nH]1)C(=O)c1ccc(S(=O)(=O)N2CCCC2)cc1	-18%	.	.	0.5%

4 of the compounds above, as labelled records.
O=C(NC(=S)Nc1ccc(N2CCOCC2)cc1)c1cccs1
  Rango dissoc inh: 21% | miR-21 FLuc: -43% | GLA inh pH 4.5: -2 | Rango-impB inh: 2.2%
CCOC(=O)COc1ccc(C(=O)c2ccccc2)c(O)c1
  Rango dissoc inh: 11% | miR-21 FLuc: 5% | GLA inh pH 4.5: 1 | Rango-impB inh: -1.0%
CN(Cc1cccc(Cl)c1)C(=O)C1CCC(=O)N(C2CC2)C1 (stereo unspecified)
  Rango dissoc inh: -8% | miR-21 FLuc: -3% | GLA inh pH 4.5: . | Rango-impB inh: 0.4%
CCn1nc(NC(=O)c2ccncc2)c2cc3cc(C)ccc3nc21
  Rango dissoc inh: ? | miR-21 FLuc: -20% | GLA inh pH 4.5: 5 | Rango-impB inh: ?

Further records:
SMILES	Rango dissoc inh	miR-21 FLuc	GLA inh pH 4.5	Rango-impB inh
Cn1c(=O)c2ccccc2n(Cc2cccc(F)c2)c1=O	14%	-2%	.	1.6%
CCOC(=O)Cc1csc(NC(=O)Nc2cccc(OC)c2)n1	-17%	0%	4	-0.6%
O=C(CCNC(=O)c1ccc([N+](=O)[O-])cc1)NCc1cccs1	-1%	.	.	1.9%
COc1ccccc1C(=O)NC(CCSC)C(=O)NNC(=O)c1ccc(F)cc1 (stereo unspecified)	-11%	-3%	.	-0.2%
CCn1cc(CN2CCC(C(=O)Nc3cccc(-c4cccc(OC)c4)c3)CC2)c(C)n1	-5%	1%	.	-1.4%
O=c1[nH]c2cc3c(cc2cc1C(c1nnnn1CC1CCCO1)N1CCCC1)OCO3 (stereo unspecified)	?	-6%	15	?
CCSc1nc2ccc(N3C(=O)C4C5C=CC(C5)C4C3=O)cc2s1 (stereo unspecified)	-5%	-39%	2	-3.9%
c1cc2c(cc1OCCNC1CCCC1)CCC2	.	-7%	17	.
NC(=O)Nc1ccc(Oc2c(F)c(F)c(F)c(F)c2F)cc1	-6%	-16%	5	2.6%
CC(C)c1ccc(S(=O)(=O)/N=C2/C=C(Sc3ncn[nH]3)C(=O)c3ccccc32)cc1	0%	?	-12	3.0%
O=C(c1n[nH]c2ccccc12)N1CCN(S(=O)(=O)c2ccc3ccccc3c2)CC1	13%	-4%	-6	?
COc1ccc(CN2CC(C(=O)NCC3CCCO3)CC2=O)cc1 (stereo unspecified)	8%	-1%	-10	9.1%
CC(=O)Nc1c([N+](=O)[O-])cc(C)c(Cl)c1[N+](=O)[O-]	12%	2%	-2	4.1%
COCCCn1c(C(C)C)nc2oc3cc(OC)ccc3c(=O)c2c1=O	-7%	-5%	1	3.4%
CC(C)Oc1ccc(N2CC(C(=O)Nc3ccc(N4CCOCC4)cc3)CC2=O)cc1 (stereo unspecified)	8%	-9%	-3	-0.9%
CCCc1cc(=O)oc2cc(C)cc(OCC(=O)N[C@@H](CSCc3ccccc3)C(=O)O)c12	2%	0%	.	2.6%
CN1C(=O)CC(NNC(=O)c2ccccc2)C1=O (stereo unspecified)	-5%	-8%	-3	-5.8%
Cc1ccccc1CSCCNC(=O)CCSc1ccccc1	1%	-10%	-7	2.8%
CCN(CC)Cc1c(O)ccc2occ(C(=O)c3ccc(OC)cc3)c12	-10%	-29%	3	-4.5%
N#C/C(=C\c1ccc(N2CCCCC2)o1)C(N)=O	?	-23%	-8	?
COCCCn1c(=O)c2sccc2n2c(CCCC(=O)NCc3ccccc3)nnc12	5%	0%	.	2.5%
Cc1ccc(NC(=O)c2ccc(S(=O)(=O)N3CC(C)CC(C)C3)cc2)cc1S(=O)(=O)N1CCOCC1 (stereo unspecified)	2%	.	.	0.0%
COc1ccc(CCNC(=O)CCc2ccc(S(=O)(=O)NCC(C)C)cc2)cc1	-11%	1%	6	-0.6%
CC(C)[N+]1(C)[C@@H]2CC[C@H]1CC(OC(=O)C(CO)c1ccccc1)C2 (stereo partly specified)	6%&3%&-13%	-8%	8	0.0%&-4.8%&-4.4%
COC(=O)C1(Cc2cc(-c3ccc(OC)cc3OC)no2)CCN(C(=O)OC(C)(C)C)CC1	12%	6%	.	-2.9%
c1ccc(-c2nnc(-c3c[nH]c4ccccc34)nc2-c2ccccc2)cc1	20%	-5%	-5	5.7%
CC(C)(C)OC(=O)C[C@H]1C/C=C\C[C@@H](CC(=O)N(CCO)Cc2ccccc2)C(=O)N[C@H](Cc2ccccc2)COC1=O	0%	.	.	3.2%
COc1cc(C(=O)N2CCN(C(=O)c3cc(-c4ccccc4)n[nH]3)CC2)cc(OC)c1OC	0%	-2%	.	-0.5%
COc1cccc(C(c2nnnn2C(C)(C)C)N2CCN(C3CCCCC3)CC2)c1OC (stereo unspecified)	9%	-1%	1	0.5%
CC1Cc2ccccc2N1C(=O)CSc1nnc(NC(=O)Cc2cccs2)s1 (stereo unspecified)	-16%	-4%	2	?
CCOc1ccccc1OCC(=O)Nc1cc(S(=O)(=O)N2CCCCC2)ccc1N1CCN(CC)CC1	13%	.	.	1.4%
Nc1ccc(-c2nnn(CC(=O)N3CCCCC3)n2)cc1	3%	12%	.	-3.2%
CCn1c2ccccc2c2nnc(SCC(N)=O)nc21	-16%	-11%	1	-1.4%
CCCN1CCN(CCCNC(=O)c2ccc(NC(=O)C3=C(C)OCCS3)cc2)CC1	7%	-4%	.	-0.5%
CC(=O)c1ccc(NCCC(=O)c2ccccc2)cc1	5%	-26%	7	-0.7%
CCC1CCCCN1CCCNC(=O)C(C)n1nc(C)c2sc3ccccc3c2c1=O (stereo unspecified)	17%	-5%	.	4.7%
CC(=O)Nc1c(C)cc(OCC(=O)O)cc1C	1%	-4%	-4	-1.3%
Cc1ccnc(NC(=O)CNC(=O)COc2ccccc2)c1	31%	.	.	-4.3%
Cc1c(C(C)NC(=O)Nc2ccc(F)cc2F)cnn1C (stereo unspecified)	-1%	-4%	-1	1.1%
CCC(C(=O)NCc1ccc(F)cc1)N(CCc1ccccc1)C(=O)c1snc(C(N)=O)c1N (stereo unspecified)	?	2%	.	0.7%

Reformatted: entries from further up
SMILES: Cc1ccc(NC(=O)CN(C)C(=O)c2cccc(-n3cccc3)c2)cc1
  Rango dissoc inh: 7%
  miR-21 FLuc: .
  GLA inh pH 4.5: .
  Rango-impB inh: -2.8%

SMILES: O=C(CN1C(=O)NC2(CCCCCCC2)C1=O)NC(=O)NCc1ccco1
  Rango dissoc inh: 12%
  miR-21 FLuc: -7%
  GLA inh pH 4.5: 3
  Rango-impB inh: 0.8%

SMILES: Cc1ccc(-c2nc(CN(C)C3CCOC3)c(C)o2)s1 (stereo unspecified)
  Rango dissoc inh: -3%
  miR-21 FLuc: -32%
  GLA inh pH 4.5: -2
  Rango-impB inh: -1.1%

Other entries follow.
SMILES	Rango dissoc inh	miR-21 FLuc	GLA inh pH 4.5	Rango-impB inh
CCN(CC)S(=O)(=O)c1cc(NC(=O)CCc2c(C)noc2C)ccc1C	1%	.	.	-0.7%
Cc1ccc(C(=O)N2CCN(c3ccccc3F)CC2)cc1S(=O)(=O)N1CCOCC1	3%	3%	-8	?
COc1ccccc1N(C)S(=O)(=O)c1ccc(C(=O)N(C)Cc2ccc(OC(F)F)cc2)cc1	-6%	.	.	-0.2%
O=[N+]([O-])c1sccc1CS(=O)(=O)c1ccccc1	33%	3%	7	4.2%
CC(=O)Nc1ccc(Oc2sc(C(=O)c3ccccc3)c(N)c2C#N)cc1	0%	27%	-3	-3.7%

Some of the compounds tested, so the mix of outcomes need not match the whole.
